# From PubChem
# MbtI inh: inhibitors of Mycobacterium tuberculosis siderophore enzyme MbtI; P9WFX0; purified MbtI enzyme, fluorescence intensity read-out; inhibition, %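 (about 17 µg/mL by stock and volumes)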; 100,000 compounds, 0.89% hits;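 active = above 50% in both replicates, above 80% if mildly self-fluorescent; inactive = the rest, strongly fluorescent compounds included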;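 also: 0% = mean of negative and 100% = mean of positive controls; one replicate is shown; some compounds called inactive have numbers as strong as hits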
# Target sequence (P9WFX0 whole entry, looked up): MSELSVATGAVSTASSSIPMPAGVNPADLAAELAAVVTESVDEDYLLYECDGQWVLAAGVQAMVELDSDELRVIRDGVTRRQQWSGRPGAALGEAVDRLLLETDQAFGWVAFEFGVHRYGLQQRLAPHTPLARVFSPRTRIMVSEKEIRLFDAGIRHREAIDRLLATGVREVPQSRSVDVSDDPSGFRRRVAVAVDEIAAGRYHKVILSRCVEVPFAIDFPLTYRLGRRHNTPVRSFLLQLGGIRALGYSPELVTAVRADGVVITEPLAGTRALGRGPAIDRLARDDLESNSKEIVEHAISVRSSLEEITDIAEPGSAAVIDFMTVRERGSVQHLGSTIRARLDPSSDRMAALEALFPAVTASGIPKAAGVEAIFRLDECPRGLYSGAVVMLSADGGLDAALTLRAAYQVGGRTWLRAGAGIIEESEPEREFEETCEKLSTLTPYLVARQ
# PV pol inh: inhibitors of poliovirus RNA polymerase binding and polymerization; poliovirus polymerase elongation, fluorescence polarization; stronger effect = lower value; % elongation, % (compound at 16.7 µg/mL); 150,000 compounds, 0.66% hits; in the data active = % elongation below about 90%; also: some results filed as inactive read as strong as hits
# Target sequence (P03300 1749-2209 limits assumed): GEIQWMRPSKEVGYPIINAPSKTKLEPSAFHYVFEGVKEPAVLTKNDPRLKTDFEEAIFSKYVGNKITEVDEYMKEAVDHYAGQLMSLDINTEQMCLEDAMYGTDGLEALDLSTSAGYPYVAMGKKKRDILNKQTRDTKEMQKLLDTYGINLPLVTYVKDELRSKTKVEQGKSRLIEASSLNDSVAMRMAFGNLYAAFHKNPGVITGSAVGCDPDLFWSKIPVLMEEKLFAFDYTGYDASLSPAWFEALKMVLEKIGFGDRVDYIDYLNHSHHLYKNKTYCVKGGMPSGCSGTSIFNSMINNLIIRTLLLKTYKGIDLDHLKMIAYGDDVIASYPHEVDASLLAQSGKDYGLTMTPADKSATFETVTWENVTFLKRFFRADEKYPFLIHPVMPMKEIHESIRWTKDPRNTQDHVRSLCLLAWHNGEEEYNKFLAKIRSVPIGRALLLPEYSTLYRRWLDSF
# MenB inh: Mtb MenB enzyme inhibition; MenB enzyme assay, absorbance read-out; some hits fall short of the stated cut; inhibition, %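 (about 12 µg/mL by stock and volumes)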; 100,000 compounds, 0.43% hits; AID 540299;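 active = mean of two replicates above 30%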;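 also: 0% = no compound and 100% = wells with inactive enzyme; the first replicate is given; strong numbers were not always called active; inactives centre near -10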
# PV pol inh intensity: further read-out of PV pol inh, marked with its call; % elongation; measured here: total intensity read-out; formula for this scale not given here;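 total fluorescence in place of polarization; lower means less elongation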
# An asterisk follows results filed as active; . = no result given.
smiles	MbtI inh	PV pol inh	PV pol inh intensity	MenB inh
Cc1ccc(OCC(=O)Nc2nc3ccccc3s2)c(C)c1	4	104	99	.
O=S(=O)(Cc1ccc(Cl)cc1Cl)C1CCCCC1O (stereo not drawn)	-8	103	104	2
COc1ccc(C2=NN(C(C)=O)CC2)cc1	-67	100	100	0
Cc1cc(C)n(CC(O)CON=C2c3ccccc3-c3ccccc32)n1 (stereo not drawn)	4	105	107	-47
O=C(c1ccco1)N1CCN(C2=Nc3cccc4cccc2c34)CC1	46	105	176	-81
Cc1ccc(S(=O)(=O)Nc2cccc(-c3ccc4nnc(C)n4n3)c2)s1	3	101	101	-4
COc1ccc(C2C(C#N)=C(N)Oc3cc4c(cc32)OCO4)cc1 (stereo not drawn)	2	100	101	10
CC(NS(=O)(=O)c1ccccc1)C(=O)NCc1ccc(CN2CCCC2)cc1 (stereo not drawn)	-11	104	112	-14
O=C(Cn1nnc(-c2ccccc2)n1)OC1CCOC1=O (stereo not drawn)	-17	99	103	3
O=S(=O)(Nc1cccc(-c2nnc3n2CCCCC3)c1)c1ccc2c(c1)OCCCO2	-2	102	101	-25
O=c1c(Cc2ccccc2)c(O)nc2ccccn12	-10	103	96	-20
C/C(=N\NC(=O)CN1C(=O)COc2ccccc21)c1cc2cc(Cl)ccc2o1	-25	99	103	-6

# New compounds follow:
smiles	MbtI inh	PV pol inh	PV pol inh intensity	MenB inh
CN(C)c1ccc(CNC(=O)CC2(CC3=NS(=O)(=O)c4ccccc4N3)CCCC2)cc1	11	100	101	9
CCCN(CCC)S(=O)(=O)c1ccc(OC)c2ncccc12	.	106	110	-6
C=CCN1C(=O)/C(=C2/C(=O)N(CC=C)c3ccccc32)SC1=S	-6	102	102	-3
Cc1cc(C(=O)OCC(=O)c2cc(C)n(-c3ccc(Cl)cc3)c2C)no1	-5	108	109	-19
Cc1nn(Cc2ccccc2Cl)c2sc(C(=O)OCc3nc4ccccc4c(=O)n3CC#N)cc12	197	107	110	-12
CCn1c(COc2cccc(C)c2)nnc1SCC(=O)N1C(C)CCCC1C (stereo not drawn)	-5	102	103	39*
Clc1ccc(-c2noc(CSc3ccccc3)n2)cc1	-13	103	103	-31
COc1cccc(NC(=S)N(C)c2ccc(O)cc2)c1	36	103	99	-38
Cn1nc(C(=O)N2CCC(c3ccccc3)C2)c2c1-c1ccsc1CC2 (stereo not drawn)	-13	102	103	-10
CCOC(=O)c1cnc(N2CCN(c3ccccc3)CC2)[nH]c1=O	9	100	101	21
Cc1cc(C)nc(-n2cc3c(=O)[nH]c(=S)[nH]c3n2)n1	10	102	102	-32
COc1ccc(-n2c(O)c(/C=N/N(C)C)c3ccccc3c2=O)cc1	-7	101	105	-21

# (further entries)
smiles	MbtI inh	PV pol inh	PV pol inh intensity	MenB inh
Cc1ccc2sc(-c3ccc(N4C(=O)C5CC=CCC5C4=O)cc3)nc2c1 (stereo not drawn)	1	99	99	-5
C=C(C)CN1N=C(C(C)(C)C)CC1=O	-5	103	103	-26
CCN(CC)CCNc1c2c(nc3cc(-c4ccc(OC)c(OC)c4)nn13)CCC2	-2	104	98	-42
O=C(NCCc1nnc2ccc(SCC(=O)N3CCCC3)nn12)c1ccccc1	11	105	97	-30
CCCC1(C(=O)OC)NC(c2ccc(OC)c(OC)c2)C2C(=O)N(c3ccc4c(c3)OCO4)C(=O)C21 (stereo not drawn)	-13	101	99	-5
O=C1CCCc2ccccc2N1	-10	101	102	12
O=C(OCCN1CCCCC1)c1ccc(F)cc1	0	103	101	6
CCNC(CC(=O)Nc1ccc(O)cc1)C(=O)O (stereo not drawn)	-10	101	101	-2
COc1ccc(C)cc1NC(=O)C(Sc1nnc(C2CC2)n1C)c1ccccc1 (stereo not drawn)	-3	103	103	-18
Cc1cccc2nc(CSc3nnc4ccccn34)cn12	22	103	110	.
CNC(=O)n1cc(-c2ccccc2)c(C)n1	-7	100	105	1
Cc1cc2c3c([nH]c2cc1S(=O)(=O)NC1CC1)CCCC3=O	7	102	104	-32

# Among those listed so far, 6 have a halogen.
smiles	MbtI inh	PV pol inh	PV pol inh intensity	MenB inh
O=S(=O)(Cc1ccc(Cl)cc1Cl)C1CCCCC1O (stereo not drawn)	-8	103	104	2
C/C(=N\NC(=O)CN1C(=O)COc2ccccc21)c1cc2cc(Cl)ccc2o1	-25	99	103	-6
Cc1cc(C(=O)OCC(=O)c2cc(C)n(-c3ccc(Cl)cc3)c2C)no1	-5	108	109	-19
Cc1nn(Cc2ccccc2Cl)c2sc(C(=O)OCc3nc4ccccc4c(=O)n3CC#N)cc12	197	107	110	-12
Clc1ccc(-c2noc(CSc3ccccc3)n2)cc1	-13	103	103	-31
O=C(OCCN1CCCCC1)c1ccc(F)cc1	0	103	101	6

# Gathered by group, the compounds so far containing a carbonyl joined to an NH by a bond outside any ring (eight)
smiles	MbtI inh	PV pol inh	PV pol inh intensity	MenB inh
Cc1ccc(OCC(=O)Nc2nc3ccccc3s2)c(C)c1	4	104	99	.
CC(NS(=O)(=O)c1ccccc1)C(=O)NCc1ccc(CN2CCCC2)cc1 (stereo not drawn)	-11	104	112	-14
C/C(=N\NC(=O)CN1C(=O)COc2ccccc21)c1cc2cc(Cl)ccc2o1	-25	99	103	-6
CN(C)c1ccc(CNC(=O)CC2(CC3=NS(=O)(=O)c4ccccc4N3)CCCC2)cc1	11	100	101	9
O=C(NCCc1nnc2ccc(SCC(=O)N3CCCC3)nn12)c1ccccc1	11	105	97	-30
CCNC(CC(=O)Nc1ccc(O)cc1)C(=O)O (stereo not drawn)	-10	101	101	-2
COc1ccc(C)cc1NC(=O)C(Sc1nnc(C2CC2)n1C)c1ccccc1 (stereo not drawn)	-3	103	103	-18
CNC(=O)n1cc(-c2ccccc2)c(C)n1	-7	100	105	1

# New compounds follow:
# Short keys – A = MbtI inh; B = PV pol inh; C = PV pol inh intensity; D = MenB inh
Cc1ccc(S(=O)(=O)c2no[n+]([O-])c2S(=O)(=O)c2ccc(C)cc2)cc1
  A: . | B: 79* | C: 69* | D: -28
Cc1cc(C(=O)CSc2nnc(Cc3ccccc3)o2)c(C)n1CCc1ccccc1
  A: 7 | B: 102 | C: 108 | D: -22
Cc1cccc(N2CCN(C(=O)/C=C3\Sc4ccccc4NC3=O)CC2)c1C
  A: -2 | B: 101 | C: 103 | D: 4
CC1=C(C#N)C(c2cc(Br)ccc2O)C(C#N)=C(C)N1
  A: 0 | B: 100 | C: 97 | D: -7
O=C(Cc1ccccc1)c1ccc(Br)cc1
  A: -6 | B: 105 | C: 100 | D: -6
COc1ccc(-c2nn(-c3ccccc3)cc2CCC(=O)O)cc1
  A: -9 | B: 100 | C: 98 | D: .
O=C(OCc1c(F)cccc1Cl)c1ccc(Cl)cc1
  A: -3 | B: 102 | C: 96 | D: 9
Cn1cnc(S(=O)(=O)N(Cc2ccccc2)Cc2ccccc2N2CCC(C(=O)O)CC2)c1
  A: -12 | B: 86* | C: 84* | D: 4
Cc1ccccc1NC(=O)CCC1COc2ccccc2O1 (stereo not drawn)
  A: -4 | B: 102 | C: 101 | D: 3
NC(=O)C1CCN(C(=O)c2ccc(/C=C3/Oc4ccccc4N(Cc4ccccc4F)C3=O)cc2)CC1
  A: -49 | B: 101 | C: 100 | D: -31

# Some of the entries so far, with two lines to a compound.
# Every second line gives: MbtI inh | PV pol inh | PV pol inh intensity | MenB inh
COc1ccc(-c2nn(-c3ccccc3)cc2CCC(=O)O)cc1
 : -9 | 100 | 98 | .
Cc1ccc(S(=O)(=O)c2no[n+]([O-])c2S(=O)(=O)c2ccc(C)cc2)cc1
 : . | 79* | 69* | -28

# The list goes on.
# Short keys – A = MbtI inh; B = PV pol inh; C = PV pol inh intensity; D = MenB inh
C(=N\N1CCN(c2ccccn2)CC1)/c1ccco1
  A: 31 | B: 105 | C: 98 | D: -52
Cn1cc(S(=O)(=O)c2ccccc2)c(=O)c2cc(F)ccc21
  A: 3 | B: 100 | C: 102 | D: 13
CCOC(=O)C1CCN(C(=O)[C@H](Cc2ccccc2)N2Cc3ccccc3C2=O)CC1
  A: 4 | B: 98 | C: 101 | D: -27
COc1ccc2c(C)[nH]c(=O)cc2c1
  A: 89 | B: 99 | C: 101 | D: -1
O=C(COC(=O)CSc1nnc(-c2ccccc2F)n1-c1ccccc1)Nc1nnc(-c2ccccc2)o1
  A: -5 | B: 110 | C: 111 | D: -43
O=C(COc1ccc(Cl)cc1)N1CCCCC1
  A: -5 | B: 102 | C: 100 | D: -17
CCN(C(=O)CSC1=NCCS1)C1CCCCC1
  A: -1 | B: 103 | C: 107 | D: .
CC(C)(C)C(=O)Nc1cccc(-c2nc3ccccc3[nH]2)c1
  A: . | B: 104 | C: 106 | D: -7
Clc1ccc2c(c1)c(-c1ccccc1)nc1nncn12
  A: 2 | B: 101 | C: 108 | D: -7
O=C(c1ccccc1)N1CCN(C(=O)C2CC3C=CC2C3)CC1 (stereo not drawn)
  A: -4 | B: 100 | C: 90 | D: -25

# Going on with the list:
# Short keys – A = MbtI inh; B = PV pol inh; C = PV pol inh intensity; D = MenB inh
CCC(C)(CC(=O)O)CC(=O)Nc1cc(C(F)(F)F)cc(C(F)(F)F)c1 (stereo not drawn)
  A: -6 | B: 102 | C: 103 | D: -9
COc1cn(-c2ccccc2)nc1C(=O)Nc1ccc2nc(C)sc2c1
  A: -21 | B: 105 | C: 111 | D: -16
O=C1CC(NS(=O)(=O)c2cccnc2)CN1c1ccccc1 (stereo not drawn)
  A: -6 | B: 106 | C: 106 | D: -23
COc1ccc(C(=O)Nc2ccc(C(O)(C(F)(F)F)C(F)(F)F)cc2)cc1
  A: 4 | B: 102 | C: 103 | D: -4
Cn1c(=O)c(=O)n(C)c2cc(S(=O)(=O)N3CCOc4ccccc43)ccc21
  A: 13 | B: 99 | C: 100 | D: -20
Cc1onc(-c2c(Cl)cccc2Cl)c1C(=O)N(C)C
  A: -6 | B: 104 | C: 98 | D: -18
C=CS(=O)(=O)c1ccc(Oc2ccc(S(=O)(=O)C=C)cc2)cc1
  A: 51 | B: 100 | C: 101 | D: -26
CC(C)c1ccc(OCC(=O)Nc2ccccc2C(F)(F)F)cc1
  A: . | B: 109 | C: 116 | D: -14
Cn1cccc1CNCC(O)c1ccccc1 (stereo not drawn)
  A: -2 | B: 106 | C: 101 | D: -37
Cc1ccccc1C(=O)Nc1n[nH]c(C(F)(F)F)n1
  A: -2 | B: 102 | C: 104 | D: .

# (continued)
# Short keys – A = MbtI inh; B = PV pol inh; C = PV pol inh intensity; D = MenB inh
CC(C)(C)N=C1OC(c2ccccc2)(C(F)(F)F)NC(=S)N1c1ccccc1 (stereo not drawn)
  A: . | B: 105 | C: 106 | D: -14
O=C(Cn1nnc(-c2cccnc2)n1)NCC1CCCO1 (stereo not drawn)
  A: -8 | B: 100 | C: 106 | D: -13
CCN(CC)CCn1nc(C)nc1-c1ccccc1O
  A: -6 | B: 95 | C: 91 | D: 5
CCOc1ccc(N2CC(C(=O)Oc3ccc4c(C)cc(=O)oc4c3)CC2=O)cc1 (stereo not drawn)
  A: -21 | B: 102 | C: 105 | D: -12
Cc1ccc(C(=O)CC2(O)C(=O)Nc3ccccc32)o1 (stereo not drawn)
  A: -30 | B: 100 | C: 101 | D: -15
Cc1ccnc(N2CCC(C(=O)NCc3ccc(F)cc3)CC2)n1
  A: 4 | B: 101 | C: 103 | D: -14
NNC(=O)Cc1csc(-c2cccc(-n3cccc3)c2)n1
  A: -2 | B: 106 | C: 102 | D: 3
CN1C(=O)Cc2cc(S(=O)(=O)CCC(=O)N3CCn4c3nc3ccccc34)ccc21
  A: -19 | B: 102 | C: 104 | D: -20
O=C1/C(=C/c2cccs2)CS/C1=C/c1cccs1
  A: 7 | B: 101 | C: 106 | D: -7
Cc1ccccc1CSCC(=O)Nc1sccc1C#N
  A: -5 | B: 108 | C: 99 | D: -46

# Further structures follow:
# Short keys – A = MbtI inh; B = PV pol inh; C = PV pol inh intensity; D = MenB inh
CCOC(=O)N1CCN(Cc2nnc(-c3ccc4c(c3)OCO4)o2)CC1
  A: 17 | B: 105 | C: 106 | D: -17
CCn1c(CSc2ccc3c(c2)OCCCO3)nc2cc(S(=O)(=O)N(C)C)ccc21
  A: -6 | B: 113 | C: 125 | D: -16
CCc1nc(C)ccc1OCC(=O)N(CC)CC
  A: 6 | B: 99 | C: 96 | D: -9
CCN(CC)c1nc(C)nc2ccccc12
  A: 7 | B: 109 | C: 118 | D: .
S=C(NCCc1ccc(Cl)cc1)Nc1ccccc1
  A: -14 | B: 100 | C: 99 | D: -5
